Source: PubChem BioAssay
TRPML1 inh – inhibitors of human TRPML1 channel. TRPML1-inducible cells, Ca2+ dye fluorescence, FDSS; active compounds read low; inhibition of EC80 agonist-evoked calcium signal. activity change, negative = inhibition, % (concentration not given with the values). 390,000 compounds, 0.02% hits. AID 624415; in the data active means activity change below about -50%; inconclusive means about -30% to -50%; inactive means above about -30%;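 also: stimulus is agonist 54-4 at its EC80 concentration; % is scaled to controls: 0 for no effect and ±100 for the full control effect; the text of the record puts the active cut at -80%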
Target sequence (Q9GZU1 whole entry, looked up): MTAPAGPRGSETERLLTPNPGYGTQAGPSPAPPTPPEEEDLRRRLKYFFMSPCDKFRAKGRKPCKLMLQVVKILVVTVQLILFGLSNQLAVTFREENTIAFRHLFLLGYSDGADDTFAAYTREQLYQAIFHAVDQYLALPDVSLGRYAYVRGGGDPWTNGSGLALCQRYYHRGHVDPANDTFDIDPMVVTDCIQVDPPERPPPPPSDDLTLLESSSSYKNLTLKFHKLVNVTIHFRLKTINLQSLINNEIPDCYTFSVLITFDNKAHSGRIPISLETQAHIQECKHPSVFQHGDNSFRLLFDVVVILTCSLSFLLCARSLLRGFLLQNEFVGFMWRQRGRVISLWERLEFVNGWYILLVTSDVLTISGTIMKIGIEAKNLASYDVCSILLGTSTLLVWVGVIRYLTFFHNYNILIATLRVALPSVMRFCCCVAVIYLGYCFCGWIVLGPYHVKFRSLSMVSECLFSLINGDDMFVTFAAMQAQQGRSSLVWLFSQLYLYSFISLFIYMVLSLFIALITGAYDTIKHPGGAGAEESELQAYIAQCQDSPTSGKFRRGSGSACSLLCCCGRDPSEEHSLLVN
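Calcium fluorescence in TRPML1-DL cells induced overnight with Tet: a 110 s read after compound pin addition, then a 110 s antagonist read after challenge with 54-4 at 4 uM final (EC80).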
Menin-MLL FL inh – menin-MLL binding inhibition, fluorescein peptide. Fluorescence polarization, fluorescein-MLL peptide displacement from menin. FP activity change, % at 61.4 µM. 290,000 tested, under 10 active. AID 1766; inconclusive = falling polarisation curve, or a change in total fluorescence; inactive = total fluorescence flat and polarisation flat or rising; no compound was filed as active; the % refers to the polarisation; negative = inhibition;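 also: % of control where 0% means no effect; inhibitors lower the polarisation; unlabelled MLL peptide was the positive control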
PINK1 modulator – modulators of PINK1 expression; PINK1 immunofluorescence, high-content cytometry, 24 h; Potency, µM (series often up to 76.6 µM), without a hit: at the top dose activation (PINK1 increase), usual class: activators; 410,000 compounds, 0.2% hits; active = well fitted activation curve with a large enough effect; inconclusive = small, poorly fitted or top-dose-only effect; inactive = flat fitted curve, though single readings scatter; cell line not stated here;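 also: potency is read from the fitted curve at half-maximal effect; % of control where 0% means no effect; nearly all actives have a fitted effect of over 65% in size; a mitochondrial uncoupler was the plate control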
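Fluorescence from anti-PINK1 antibody, together with nuclear and cell stains, was scanned on a laser-scanning cytometer. Before staining, stable-line cells were incubated 24 hours with compounds at 5 concentrations; primary antibody 12 h at 10 degrees C.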
TRPML1 agonist – activates the human TRPML1 channel | Q9GZU1 | TRPML1-expressing cells, Ca2+ dye fluorescence, FDSS; host cell line not named in the record; reference of the full effect not given here | activation, % (test concentration not listed) | 410,000 compounds, 0.12% hits; in the data active = activation above about 50%; inconclusive = about 30% to 50%; inactive = below about 30%; also: 0% is about no effect; the text of the record puts the active cut at 80%
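Kinetic FDSS Ca2+ read in Tet-induced TRPML1-DL cells (ABD Ca8 dye plus quencher, 45-90 min RT loading): baseline, then compound, then 110 s agonist window; EC80 agonist 54-4 at 4uM final added afterwards for a 110 s antagonist window.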
ClpP mod – qHTS Assay for Activators of ClpP; ATP-dependent Clp protease proteolytic subunit (Bacillus subtilis (strain 168)), P80244; purified B. subtilis ClpP, FRET peptide cleavage, 20 min; Potency, µM (doses to about 57.5 µM), inactives show top-dose activity change, negative = active; 340,000 compounds, 1.9% hits; active = well fitted falling curve with a large enough effect; inconclusive = small, poorly fitted or top-dose-only effect; inactive = no such curve, though single readings can be large or run the other way; also: potency is read from the fitted curve at half-maximal effect; the source files actives as falling curves though it sought activators and does not explain the sign; nearly all actives have a fitted effect of over 65% in size; many hits overshoot -100%
Target sequence (P80244 whole entry, looked up): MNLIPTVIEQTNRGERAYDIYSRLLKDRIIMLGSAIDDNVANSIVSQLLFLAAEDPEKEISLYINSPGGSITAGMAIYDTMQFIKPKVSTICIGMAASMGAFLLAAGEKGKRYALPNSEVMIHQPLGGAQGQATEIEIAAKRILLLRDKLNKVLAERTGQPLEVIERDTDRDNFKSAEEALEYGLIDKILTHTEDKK
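ClpP 10 microg/mL final, pH 8 Tris/KCl buffer with BSA, glycerol, Tween-20; compound pinned in; FRET-FV substrate; RT 20 min; Ex320/Em430; ΔFRET vs ADEP 5.8 microM, DMSO, no enzyme.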
Sfp PPTase inh – Sfp phosphopantetheinyl transferase inhibition | Q9F4F7 | Potency, µM, for inactives: max response, negative = inhibition, usual class: inhibitors | Biochemical Sfp PPTase activity, qHTS | 310,000 compounds, 3.5% hits; active = well fitted inhibition curve with a large enough effect; inconclusive = small, poorly fitted or top-dose-only effect, or another doubt; inactive = no such curve, though single readings can be large or run the other way;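 also: the enzyme is Sfp with the accession as filed and its product quenches rhodamine fluorescence; potency is read from the fitted curve at half-maximal effect; 0% = enzyme reaction without inhibitor and -100% = no enzyme wells; top concentration of the series not given in the record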
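Buffer: 50 mM Hepes-Na pH 7.6, 10 mM MgCl2, 0.01% Nonidet P-40, 0.01% BSA. Enzyme 15 nM, pre-exposed to compound 15 min; substrates then added and fluorescence change tracked over 30 min.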
TRPV1 potentiator – potentiators of human vanilloid receptor 1 (TRPV1). Q8NER1. 320,000 compounds, 0.02% hits. TRPV1-expressing cells, Fluo-8 calcium influx, capsaicin EC20 potentiation; host cell line not named in the record; control for the full effect not named in the record. potentiation, % at 8.33 µM. AID 540277; active means potentiation above 80%; inconclusive means 30% to 80%; inactive means below 30%; also: 0% is about no effect
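Fluo-8 calcium influx in TRPV1-expressing cells, kinetic read (ex 480/em 520 nm). Compound added and read 3 min for agonist activity, followed by capsaicin at EC20 final and 2 min further read for enhancement.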
* hit, by the source's call; ? = inconclusive; . = not tested or not shown; & = joins results of further samples; [ ] = another dose, or the depositor's remark.

Codes: A = TRPML1 inh; B = Menin-MLL FL inh; C = PINK1 modulator; D = TRPML1 agonist; E = ClpP mod; F = Sfp PPTase inh; G = TRPV1 potentiator
(1) O=C(c1ccccc1Br)N1CCC(c2nc3ccccc3o2)CC1
  A: 1.2 | B: . | C: 0.9% | D: 3.4 | E: -1.6% | F: . | G: .
(2) Clc1ccc(CNCCCSc2ncccn2)cc1Cl
  A: -11.4 | B: 3.3 | C: 1.8% | D: 0.2 | E: . | F: 4.1% | G: 9.0
(3) O=C(c1ccc(N2CCCCC2)c([N+](=O)[O-])c1)N1CCN(S(=O)(=O)c2ccccc2)CC1
  A: 25.1 | B: . | C: -1.9% | D: 2.5 | E: . | F: . | G: -12.7
(4) Cc1cc(C)cc(NS(=O)(=O)c2cccs2)c1
  A: 7.5 | B: -4.4 | C: 0.0% | D: 1.2 | E: . | F: 9.6% | G: 5.1
(5) CSc1ncc(C(=O)NCc2ccc(C)cc2)c(C)n1
  A: -6.6 | B: . | C: 1.7% | D: 0.7 | E: -0.1% | F: . | G: .
(6) COc1ccc(NC(=O)CC2Sc3ncnn3C2=O)cc1 (stereo not drawn)
  A: -6.2 | B: 1.8 | C: 0.8% | D: 0.3 | E: -0.1% | F: 44.7µM* | G: 2.8
(7) COc1ccc(/C=C/C(=O)NCc2ccccn2)cc1OC
  A: -9.3 | B: -1.3 | C: -3.3% | D: 0.7 | E: . | F: 0.4% | G: 7.1
(8) CC(C)CNS(=O)(=O)c1ccc(OCC(=O)Nc2ccc3c(c2)OCO3)c(Cl)c1
  A: 22.4 | B: 0.5 | C: ? | D: 0.5 | E: 4.8% | F: 21.0% | G: 10.8
(9) Cn1c(=O)c2c(nc(CN3CCN(Cc4ccccc4)CC3)n2Cc2ccc(Cl)cc2)n(C)c1=O
  A: -4.0 | B: 0.2 | C: 2.5% | D: 0.3 | E: -5.9% | F: 10.9% | G: 0.6
(10) CCN1CCN(CCCNC(=O)c2ccc(CS(=O)c3ccc(Br)cc3)o2)CC1 (stereo not drawn)
  A: -5.1 | B: . | C: -1.5% | D: 0.1 | E: -0.1% | F: 17.2% | G: 13.4
(11) CCc1nnc(NC(=O)[C@@H](NC(=O)c2ccc(OC)cc2)C(C)C)s1
  A: 6.9 | B: ? | C: 2.5% | D: 0.9 | E: . | F: 10.8% | G: 0.6
(12) Cc1cc(N2CCN(S(=O)(=O)Cc3ccccc3)CC2)n2ncnc2n1
  A: -4.4 | B: 4.7 | C: 2.3%[38.3 µM] | D: 0.0 | E: 0.4% | F: 5.7% | G: 1.3
(13) COC(=O)c1ccc(Sc2ccc(C)cc2)c(N)c1
  A: 19.8 | B: 0.3 | C: ? | D: 0.4 | E: 28.2µM* | F: 50.1µM* | G: ?
(14) Cc1ccc(S(=O)(=O)N2[C@@H](c3ccc(C(C)C)cc3)C(C(=O)O)=C[C@H]2C(C)(C)C)cc1
  A: -4.4 | B: . | C: -0.7% | D: 0.2 | E: -0.4% | F: . | G: .
(15) COc1ccccc1CNC(=O)CN(C)Cc1ccc(SC)cc1
  A: 1.3 | B: -1.6 | C: 1.7% | D: -0.1 | E: . | F: -6.7% | G: -12.2
(16) CC(C)C[C@H]1COc2cc(N3CC[C@@H](O)C3)ccc2S(=O)(=O)N1
  A: . | B: . | C: -0.9% | D: 0.1 | E: 1.5% | F: . | G: .
(17) C/C(=N/NC(=O)CNC(=O)c1ccncc1)c1ccc(Cl)cc1
  A: 5.8 | B: 0.8 | C: 1.1% | D: -0.7 | E: -2.0% | F: 7.6% | G: -6.6
(18) CC(C)CC1Nc2ncnc(N3CCN(c4ccccc4)CC3)c2N(Cc2ccccc2)C1=O (stereo not drawn)
  A: 42.2&27.6 | B: . | C: 3.0%&6.0% | D: 0.0&0.0 | E: -6.3%&-5.4% | F: . | G: 3.5
(19) O=C(c1ccc2c(c1)OCCO2)C1CCN(C(=O)c2ccc(F)c(F)c2)CC1
  A: 23.9 | B: 1.4 | C: -1.0%[38.3 µM] | D: 2.8 | E: -21.9% | F: 9.8% | G: -5.8
(20) COc1cc(/C=N/NC(=O)C(=O)NCC2CCCO2)cc(Cl)c1O (stereo not drawn)
  A: 13.7 | B: 1.9 | C: 0.1% | D: -0.1 | E: 1.2% | F: 16.9% | G: 4.5
(21) CCOC(=O)c1ccc2[nH]c3c(c2c1)CCCC3NC=O (stereo not drawn)
  A: -14.3 | B: -7.4 | C: 4.5% | D: 1.1 | E: -8.9% | F: 15.4% | G: ?
(22) O=C1[C@@H](Oc2ccccc2)[C@@H](c2ccccc2)N1c1ccccc1
  A: 42.6 | B: . | C: 3.4% | D: -0.7 | E: 1.1% | F: . | G: .
(23) COc1cccc(NC(=O)Cn2cc(C=O)c3ccccc32)c1
  A: 3.3 | B: 1.8 | C: 1.4% | D: 0.2 | E: 0.9% | F: 12.5% | G: -11.3
(24) CCOc1cc(CNCC(C)C)cc(Cl)c1OCc1ccccc1
  A: -5.6 | B: -0.6 | C: ? | D: 0.9 | E: -2.1% | F: -11.6% | G: 7.5
(25) CCCCCn1c(=S)[nH]c2cc(C(=O)N3CCCC3)ccc2c1=O
  A: 12.3 | B: 0.1 | C: -0.7% | D: -0.2 | E: 0.2% | F: 20.3% | G: -2.2

Quoted at random: 2 compounds from above, in no set order.
Codes: A = TRPML1 inh; B = Menin-MLL FL inh; C = PINK1 modulator; D = TRPML1 agonist; E = ClpP mod; F = Sfp PPTase inh; G = TRPV1 potentiator
(19) O=C(c1ccc2c(c1)OCCO2)C1CCN(C(=O)c2ccc(F)c(F)c2)CC1
  A: 23.9 | B: 1.4 | C: -1.0%[38.3 µM] | D: 2.8 | E: -21.9% | F: 9.8% | G: -5.8
(21) CCOC(=O)c1ccc2[nH]c3c(c2c1)CCCC3NC=O (stereo not drawn)
  A: -14.3 | B: -7.4 | C: 4.5% | D: 1.1 | E: -8.9% | F: 15.4% | G: ?

Entries 23–25, reprinted for reference:
Codes: A = TRPML1 inh; B = Menin-MLL FL inh; C = PINK1 modulator; D = TRPML1 agonist; E = ClpP mod; F = Sfp PPTase inh; G = TRPV1 potentiator
(23) COc1cccc(NC(=O)Cn2cc(C=O)c3ccccc32)c1
  A: 3.3 | B: 1.8 | C: 1.4% | D: 0.2 | E: 0.9% | F: 12.5% | G: -11.3
(24) CCOc1cc(CNCC(C)C)cc(Cl)c1OCc1ccccc1
  A: -5.6 | B: -0.6 | C: ? | D: 0.9 | E: -2.1% | F: -11.6% | G: 7.5
(25) CCCCCn1c(=S)[nH]c2cc(C(=O)N3CCCC3)ccc2c1=O
  A: 12.3 | B: 0.1 | C: -0.7% | D: -0.2 | E: 0.2% | F: 20.3% | G: -2.2

Ordered by molecular weight (ascending): five of the compounds above
Codes: A = TRPML1 inh; B = Menin-MLL FL inh; C = PINK1 modulator; D = TRPML1 agonist; E = ClpP mod; F = Sfp PPTase inh; G = TRPV1 potentiator
(17) C/C(=N/NC(=O)CNC(=O)c1ccncc1)c1ccc(Cl)cc1
  A: 5.8 | B: 0.8 | C: 1.1% | D: -0.7 | E: -2.0% | F: 7.6% | G: -6.6
(15) COc1ccccc1CNC(=O)CN(C)Cc1ccc(SC)cc1
  A: 1.3 | B: -1.6 | C: 1.7% | D: -0.1 | E: . | F: -6.7% | G: -12.2
(1) O=C(c1ccccc1Br)N1CCC(c2nc3ccccc3o2)CC1
  A: 1.2 | B: . | C: 0.9% | D: 3.4 | E: -1.6% | F: . | G: .
(14) Cc1ccc(S(=O)(=O)N2[C@@H](c3ccc(C(C)C)cc3)C(C(=O)O)=C[C@H]2C(C)(C)C)cc1
  A: -4.4 | B: . | C: -0.7% | D: 0.2 | E: -0.4% | F: . | G: .
(3) O=C(c1ccc(N2CCCCC2)c([N+](=O)[O-])c1)N1CCN(S(=O)(=O)c2ccccc2)CC1
  A: 25.1 | B: . | C: -1.9% | D: 2.5 | E: . | F: . | G: -12.7
